Rango dissoc inh – inhibitors of RanGTP-induced Rango-importin beta complex dissociation. Potency, µM (top dose mostly 46.1 µM), for inactives: at the top dose activity change, negative = inhibition. Biochemical FRET Rango-importin beta, RanGTP-induced dissociation. AID 540253. O95149+P62826. actives 0.071% (n = 340,000); active means falling FRET ratio curve, often poorly fitted, with flat reads before Ran was added; inconclusive means other falling curves, or compound fluorescence or quenching; inactive means flat or rising ratio curve;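 further: potency means the concentration at half of the fitted maximal effect; % of control where 0% means no effect; nearly all actives have a fitted effect of over 45% in size; -100% = wells without RanGTP and RCC1; the record marks most hits as doubtful in a second field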
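Recombinant Rango FRET biosensor (EYFP–snurportin 1 IBB–cerulean CFP10) at 0.1 uM premixed with 0.25 uM importin beta in PBS, 1 mM DTT, 0.02% Tween-20, 0.1% BSA. Compound added 5 min; RanGTP-RCC1 (0.6 uM Ran, 2 mM GTP, 0.2 uM RCC1) then triggers release, read at 45 min.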
GLA inh pH 4.5 – blocks human alpha-galactosidase A at pH 4.5. P06280. purified enzyme, 4-MU-alpha-Gal fluorescence, pH 4.5. 230,000 tested, under 10 active. activity change, negative = inhibition, % at 105 µM; inconclusive = small, poorly fitted or top-dose-only inhibition, or a rising curve; inactive = flat fitted curve, though single readings scatter; no compound was filed as active;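 further: 0% = full activity with enzyme and -100% = basal without enzyme; dose as in the result columns while the protocol names 77 µM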
miR-21 reporter – raises the signal of a miR-21 reporter. HeLa miR-21 FLuc reporter, luciferase, 48 h. Potency, µM (top dose mostly 38.3 µM), without a hit: at the highest dose reporter change, positive = more light. 340,000 tested, under 10 active; active = well fitted rising curve with a large enough effect; inconclusive = small, poorly fitted or top-dose-only effect; inactive = no such curve, though single readings can be large or run the other way;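 further: % of control where 0% means no effect; miR-21 action dims this reporter so a rising signal means less miR-21 action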
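HeLa cells stably expressing CMV-driven firefly luciferase with a downstream miR-21 binding sequence, endogenously expressing miR-21, were treated with titrations (up to about 40uM final) for 48 hours at 37 degree Celsius. Luciferase luminescence was read after lysis.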
Rango-impB inh – prevents formation of the Rango-importin beta complex; Q14974; Rango CFP/YFP FRET sensor + importin beta, 45 min; Potency, µM (top dose mostly 92.2 µM), for inactives: top-dose inhibition of complex formation; actives 0.031% (n = 340,000); AID 540263; active = rising FRET ratio curve, often small or poorly fitted; inconclusive = mostly compound fluorescence or quenching in the first reads; inactive = flat curves in all reads;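 further: potency means the concentration at half of the fitted maximal effect; 0% = DMSO wells and 100% = buffer wells lacking importin beta; nearly all actives have a fitted effect of over 15% in size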
Target sequence (Q14974 whole entry, looked up): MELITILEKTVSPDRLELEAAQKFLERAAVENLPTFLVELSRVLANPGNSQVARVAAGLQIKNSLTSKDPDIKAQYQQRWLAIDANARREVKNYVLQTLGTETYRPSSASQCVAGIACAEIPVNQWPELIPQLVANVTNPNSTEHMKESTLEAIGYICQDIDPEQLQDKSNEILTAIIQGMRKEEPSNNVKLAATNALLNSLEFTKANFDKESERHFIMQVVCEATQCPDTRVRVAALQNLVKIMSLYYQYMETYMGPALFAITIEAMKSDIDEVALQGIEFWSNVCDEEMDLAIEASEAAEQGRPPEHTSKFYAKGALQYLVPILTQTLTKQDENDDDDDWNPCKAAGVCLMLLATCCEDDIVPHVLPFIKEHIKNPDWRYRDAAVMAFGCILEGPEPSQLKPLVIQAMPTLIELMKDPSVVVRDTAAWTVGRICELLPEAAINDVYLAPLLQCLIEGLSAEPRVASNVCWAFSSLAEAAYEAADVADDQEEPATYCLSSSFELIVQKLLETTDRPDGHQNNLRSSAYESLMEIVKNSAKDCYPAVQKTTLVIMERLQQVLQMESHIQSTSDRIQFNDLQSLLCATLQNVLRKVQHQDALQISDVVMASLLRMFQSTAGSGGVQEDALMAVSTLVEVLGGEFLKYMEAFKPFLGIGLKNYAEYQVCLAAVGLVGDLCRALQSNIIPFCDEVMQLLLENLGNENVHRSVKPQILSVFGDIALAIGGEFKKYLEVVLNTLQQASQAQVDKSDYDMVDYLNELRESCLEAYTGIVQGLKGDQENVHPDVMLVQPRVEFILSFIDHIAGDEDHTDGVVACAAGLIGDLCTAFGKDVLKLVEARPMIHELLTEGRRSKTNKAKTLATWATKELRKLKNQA
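Inhibition scored from the CFP 486 nm/YFP 530 nm FRET ratio 45 min after adding 0.125 microM importin beta to 50 nM Rango biosensor preincubated 5 min with compound (room temperature, PBS with DTT, Tween-20, BSA). No-importin wells as positive control.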
The depositor's hits bear a star; ? = inconclusive; / = not tested or not shown; & = joins results of further samples. A portion of the library; rates above refer to the full screens.

| Compound | Rango dissoc inh | GLA inh pH 4.5 | miR-21 reporter | Rango-impB inh |
| --- | --- | --- | --- | --- |
| COCCCC/C(=N\OCCN)c1ccc(C(F)(F)F)cc1 | 1%&15%&15%&0%&-15% | 4&4&-3&-4 | -13%&1%&-6% | -0.2%&-0.5%&6.6%&0.6%&0.3% |
| CCOC(=O)C(Cc1ccc(NC(=O)/C(=C\c2ccccc2)NC(=O)c2ccccc2)cc1)N1C(=O)c2ccccc2C1=O (configuration not stated) | 15% | -9 | -1% | -0.3% |
| O=C(NC(=S)NC1CCC(O)CC1)c1ccco1 (configuration not stated) | ? | / | / | 0.3% |
| CCCC(c1nnnn1CCOC)N1CCN(c2nc3ccccc3s2)CC1 (configuration not stated) | 15% | -8 | 4% | -0.9% |
| COC(=O)c1nn(Cc2ccccc2)c(=O)c2ccccc12 | 11% | 3 | 6% | -4.5% |
| CC(C)CNC(=O)NC(=O)COC(=O)c1cc(F)cc(F)c1 | -4% | 1 | -6% | -0.7% |
| O=C(NCCCNC(=O)c1c(Cl)cccc1Cl)c1c(Cl)cccc1Cl | 1% | / | / | 3.3% |
| Cc1ccccc1S(=O)(=O)Cc1ccc(C(=O)NCCCN2CCC(C)CC2)o1 | 2% | / | -1% | 0.5% |
| Brc1ccc(-c2csc3ncnc(-n4nnc5ccccc54)c23)cc1 | 9% | 8 | 4% | 5.9% |
| COc1ccc(-n2nc(C(=O)NCC(=O)NCC3COc4ccccc4O3)c3ccccc3c2=O)c(OC)c1 (configuration not stated) | 1% | 1 | 5% | -5.8% |
| COc1cc(C(=O)N(Cc2ccccc2)c2cccc(C)c2)ccc1OC(F)F | -3% | / | -7% | 2.5% |
| O=C(COc1ccc(C(=O)NCCN2CCOCC2)cc1)Nc1cccc(C(F)(F)F)c1 | 1% | / | / | 2.7% |

Other results follow:
| Compound | Rango dissoc inh | GLA inh pH 4.5 | miR-21 reporter | Rango-impB inh |
| --- | --- | --- | --- | --- |
| CC(C)N(Cc1ccccc1)C(=O)COC(=O)c1ccc2c(c1)OCCO2 | 7% | -22 | 4% | 2.1% |
| O=S(=O)(/N=C(/Nc1cccnc1)c1ccccc1)c1ccc(F)cc1F | -10% | / | / | -6.3% |
| Cc1cc(C)n2cc(CSc3nc4cc(Cl)ccc4o3)nc2n1 | 11% | 3 | 2% | -0.6% |
| NC(=O)Nc1cccc2ccccc12 | -3% | 3 | -1% | 0.0% |
| Cc1ccc(S(=O)(=O)N2CCN(C(=O)CC(C)C)CC2)cc1 | 15% | 6 | -40% | -2.1% |
| COc1cc(C(=S)N2CCOCC2)ccc1OS(=O)(=O)c1ccc(C)cc1 | 7% | / | -6% | -0.8% |
| CC(C)(C)/C(O)=C(/C#N)c1nc2ccccc2[nH]1 | -5% | -7 | 18% | ? |
| CCOC(=O)c1cccc(NC(=O)c2c(N)n(C)c(=O)[nH]c2=O)c1 | -13% | / | / | 0.7% |
| Cc1ccc(S(=O)(=O)NCC(=O)OC2CCOC2=O)cc1 (configuration not stated) | -3% | 4 | 0% | 0.4% |
| CCNC(=O)c1ccc(NC(=O)CC2SC(N3CCCC3)=NC2=O)cc1 (configuration not stated) | -9% | / | / | 6.2% |
| CC(C)(C)N1C(=O)c2ccc(C(=O)Nc3cc(C(=O)O)cc(C(=O)O)c3)cc2C1=O | 1% | / | -4% | -1.4% |
| Cn1c(SCC(=O)N2CCCCC2)nc2c([nH]c3ccccc32)c1=O | -12% | -14 | 5% | 3.4% |

Carrying on.
| Compound | Rango dissoc inh | GLA inh pH 4.5 | miR-21 reporter | Rango-impB inh |
| --- | --- | --- | --- | --- |
| Cc1cccc(N/N=C/c2ccncc2)c1 | 2% | / | -53% | 0.1% |
| CC(C)NC(=O)[C@H]1N2C(=O)c3ccccc3C2SC1(C)C (some centres not stated) | -11% | / | -4% | -6.0% |
| CCN(CC(=O)Nc1cc(Cl)ccc1C)C(=O)CC1CCCC1 | 1% | / | / | 2.3% |
| COc1ccccc1CNC(=O)COC(=O)c1ccccc1-c1ccccc1 | 10% | / | / | 0.0% |
| COc1ccc(CNC(=O)COC(=O)/C=C/c2cccc(Cl)c2)cc1 | 1% | / | / | -0.9% |
| COc1ccc2c(C)cc(=O)oc2c1 | -7% | -1 | / | 1.6% |
| CCOc1ccc(-c2nc(-c3ccccc3)no2)cc1OCC | -6% | -10 | -19% | -1.1% |
| c1ccc2sc(SCc3ccc(-c4nnco4)cc3)nc2c1 | 0% | -4 | -21% | 9.2% |
| CC(=O)Nc1ccc(Nc2nc(-c3c(C)nc4ccccn34)cs2)cc1 | -5% | / | / | 5.6% |
| CN1CCN(C(=O)C2=C[C@H](c3csc4ccccc34)C[C@H](OCc3ccc(CO)cc3)O2)CC1 | -8% | -2 | -3% | -1.4% |
| CCC(C)NC(=O)c1ccc(COc2ccccc2Cl)cc1 (configuration not stated) | 3% | 4 | -23% | -5.3% |
| O=C(CCC(=O)N(CC(=O)NC1CCCC1)Cc1ccc2c(c1)OCO2)Nc1nccs1 | / | -8 | 0% | / |

Rewritten with two lines to a compound: entries from further up
Below each compound: Rango dissoc inh, GLA inh pH 4.5, miR-21 reporter, Rango-impB inh
CCOC(=O)c1cccc(NC(=O)c2c(N)n(C)c(=O)[nH]c2=O)c1
  -13%, /, /, 0.7%
Cc1ccc(S(=O)(=O)NCC(=O)OC2CCOC2=O)cc1 (configuration not stated)
  -3%, 4, 0%, 0.4%
CCNC(=O)c1ccc(NC(=O)CC2SC(N3CCCC3)=NC2=O)cc1 (configuration not stated)
  -9%, /, /, 6.2%
CC(C)(C)N1C(=O)c2ccc(C(=O)Nc3cc(C(=O)O)cc(C(=O)O)c3)cc2C1=O
  1%, /, -4%, -1.4%
Cn1c(SCC(=O)N2CCCCC2)nc2c([nH]c3ccccc32)c1=O
  -12%, -14, 5%, 3.4%
Cc1cccc(N/N=C/c2ccncc2)c1
  2%, /, -53%, 0.1%
CC(C)NC(=O)[C@H]1N2C(=O)c3ccccc3C2SC1(C)C (some centres not stated)
  -11%, /, -4%, -6.0%
CCN(CC(=O)Nc1cc(Cl)ccc1C)C(=O)CC1CCCC1
  1%, /, /, 2.3%
COc1ccccc1CNC(=O)COC(=O)c1ccccc1-c1ccccc1
  10%, /, /, 0.0%
COc1ccc(CNC(=O)COC(=O)/C=C/c2cccc(Cl)c2)cc1
  1%, /, /, -0.9%
COc1ccc2c(C)cc(=O)oc2c1
  -7%, -1, /, 1.6%
CCOc1ccc(-c2nc(-c3ccccc3)no2)cc1OCC
  -6%, -10, -19%, -1.1%
c1ccc2sc(SCc3ccc(-c4nnco4)cc3)nc2c1
  0%, -4, -21%, 9.2%
CC(=O)Nc1ccc(Nc2nc(-c3c(C)nc4ccccn34)cs2)cc1
  -5%, /, /, 5.6%
CN1CCN(C(=O)C2=C[C@H](c3csc4ccccc34)C[C@H](OCc3ccc(CO)cc3)O2)CC1
  -8%, -2, -3%, -1.4%
CCC(C)NC(=O)c1ccc(COc2ccccc2Cl)cc1 (configuration not stated)
  3%, 4, -23%, -5.3%

(more compounds)
| Compound | Rango dissoc inh | GLA inh pH 4.5 | miR-21 reporter | Rango-impB inh |
| --- | --- | --- | --- | --- |
| CN(c1ccccc1)S(=O)(=O)c1cccc(C(=O)OCC(=O)NCCCN2CCCC2=O)c1 | 3% | -11 | -1% | 1.6% |
| COc1cc(/C=N/NC(=O)c2ccc(O)cc2)ccc1OCC(=O)N1CC(C)OC(C)C1 (configuration not stated) | -22% | -1 | -4% | 0.9% |
| CCc1ccc(NC(=O)Cn2cnc3sc(C)c(S(=O)(=O)N4CCOCC4)c3c2=O)cc1 | 7% | / | -2% | 2.3% |
| Cc1ccc(S(=O)(=O)N2CCC[C@H]2C(=O)OCc2cc(=O)oc3cc(C)ccc23)cc1 | 25% | / | / | -2.5% |
| CC[C@]12C(=O)N(C)C[C@H]([C@@H]3C(=O)N(C)C(=O)[C@@H]31)N2C(=O)c1ccc(C)cc1 | -4% | / | / | -0.4% |
| COC(=O)c1cc(C)sc1NC(=O)CN1CCN(C(=O)C2CCCO2)CC1 (configuration not stated) | 0% | / | ? | -0.6% |
| CC(Oc1ccccc1C(N)=O)C(=O)Nc1ccc(S(=O)(=O)N2CCCC2)cc1 (configuration not stated) | -1% | / | / | 2.7% |
| COc1ccccc1OCC(=O)N/N=C/C=C/c1ccc([N+](=O)[O-])o1 | -2% | -4 | 28% | -2.8% |
| CC(C)(C)OC(=O)NCCCCCc1nnc(SCc2ccccc2F)o1 | 2% | -25 | 4% | -2.2% |
| CCc1cc2c(=O)[nH]c(Cc3ccc(OC)cc3)nc2s1 | -14% | 7 | -25% | -0.3% |
| O=C1CC(c2ccc3c(c2)OCO3)CN1 (configuration not stated) | 13% | 1 | -6% | 3.0% |
| COc1ccc(-c2ccc(SCC(=O)N3CCCC3)nn2)cc1OC | 29% | 4 | -16% | -3.9% |

Additional structures.
| Compound | Rango dissoc inh | GLA inh pH 4.5 | miR-21 reporter | Rango-impB inh |
| --- | --- | --- | --- | --- |
| COc1ccc(Br)cc1S(=O)(=O)Nc1ncn[nH]1 | 5% | / | -3% | 0.3% |
| COC(=O)c1ccc2c(=O)n(CCN3CCOCC3)c(=S)[nH]c2c1 | -6% | 2 | -5% | -4.3% |
| Oc1ccc2ccccc2c1C=NNc1ccccn1 | -8% | / | / | -2.7% |
| COc1ccc(C)cc1NC(=O)/C=C/c1ccc(OC)c(S(=O)(=O)N2CCOCC2)c1 | 14% | / | / | -1.6% |
| COC(=O)/C=C1/S/C(=N/NC(=O)c2ccccc2)NC1=O | -5% | -3 | -4% | 0.5% |
| COc1ccc(CN(C)C(=O)Cc2ccc(S(=O)(=O)N3CCOCC3)s2)cc1OC | -24% | / | / | -3.2% |
| CCOC(=O)c1sc(NC(=O)C2CC(=O)N(c3ccc4c(c3)OCCO4)C2)nc1C (configuration not stated) | 24% | / | / | -0.6% |
| COC(=O)c1ccccc1NC(=O)CCS(=O)(=O)c1ccc(Br)s1 | 0% | -7 | 5% | 4.5% |
| COc1ccc(C2CC(=O)c3cc(OC)ccc3O2)cc1 (configuration not stated) | -11% | / | / | -1.0% |
| CCCN1Cc2cccc(C(=O)NCCCOC(C)C)c2C1=O | 3% | -12 | -10% | 0.1% |
| Cc1ccc(N2C(=O)[C@@H]3C(c4ccc(F)cc4)=NO[C@@H]3C2=O)cc1 | 11% | 2 | -2% | 1.3% |
| COc1ccc(-c2cc(C(=O)Nc3ccc(O)cc3)c3ccccc3n2)cc1OC | -2% | -8 | -8% | 0.2% |

Next part.
| Compound | Rango dissoc inh | GLA inh pH 4.5 | miR-21 reporter | Rango-impB inh |
| --- | --- | --- | --- | --- |
| COc1cc(CNn2cnnc2)ccc1OCC(=O)NC1CCCCC1 | -1% | 4 | -5% | -0.5% |
| CCn1c2c(c(C)cc1=O)C(=O)CC(C)(C)C2 | -7% | 3 | -19% | -2.7% |
| CCc1ccccc1OCC(=O)NCC1COc2ccccc2O1 (configuration not stated) | 8% | / | / | -2.8% |
| Cc1ccc(C(c2c(C)[nH][nH]c2=O)c2c(C)[nH][nH]c2=O)cc1 | 41% | / | -2% | 2.4% |
| CC1=CC(C)(C)NC(=O)N1c1ccc(C)cc1 | -3% | -10 | -6% | -5.1% |
| COc1ccc(N2CCN(C(=O)CSc3ccccc3N)CC2)cc1 | 3% | -12 | 0% | -2.6% |
| O=C(Nc1ccc(C(=O)O)cc1)/C(=C/c1cccc(Br)c1)NC(=O)c1ccco1 | 1% | -7 | -3% | 2.3% |
| Cn1c(SCC(=O)N(Cc2ccccc2)C(C)(C)C)nc2ccccc21 | 1% | -4 | -4% | -1.5% |
| O=C(Nc1ccc2c(c1)OCO2)C(c1ccc(Cl)cc1)N1CCC2(CC1)OCCO2 (configuration not stated) | 5% | -2 | -10% | 1.8% |
| C/C(CC(=O)NCc1ccc(Cl)cc1)=N\NC(=O)Cc1ccccc1 | 5% | 0 | -9% | ? |
| COc1ccccc1C=NNC(=O)c1ccncc1 | -5% | / | / | -4.3% |
| COc1cc(Cl)ccc1OCc1cc(C(=O)NC(C)Cc2cccnc2)no1 (configuration not stated) | 1% | / | -19% | -0.1% |
| Cn1nc(C(F)(F)F)c(/C=N/OC(=O)c2ccccc2)c1SCc1ccccc1Cl | 8% | 6 | -1% | 0.3% |
